# Tgondii IFNg = T. gondii growth inhibition with IFN-gamma, primary screen, cell-based | activity change, negative = inhibition, %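 (about 20 µM by stock and volumes)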 | AID 1259416, 2018 | 69,000 tested, 3.8% active | Toxoplasma gondii growth in IFN-gamma-treated host cells; hits give low values; reference of the scale not given here;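 active = below -70%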;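 also: host cells are HeLa cells infected with Toxoplasma gondii; parasite growth read as luciferase light; one replicate is shown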
# The depositor's hits bear a star; i = inactive. An excerpt, so the mix of outcomes need not match the whole.
Compound,Tgondii IFNg
Cc1cccc(COC[C@@H]2CCC3C(CCN3S(C)(=O)=O)O2)n1 (stereo partly drawn),4
COc1ccc(CNC(=O)Cn2c(=O)ccc3cc(S(=O)(=O)N4CCCC4)ccc32)cc1,116
COc1ccc(CN(C(=O)Cc2ccc3nc(N)sc3c2)C2CCN(C)CC2)cc1,-4
COc1ccc(C)cc1NC(=O)c1cncc(NS(=O)(=O)c2ccc(OC)c(OC)c2)c1,28
CN(C)CC(=O)Nc1ccc2c(c1)C(=O)N(C)[C@H]1CC[C@H](CC(=O)Nc3cccc(Cl)c3)O[C@@H]1CO2,-48
COCCN1C(=O)CCc2cc(NS(=O)(=O)c3cccc(C)c3)ccc21,-14
C[C@@H]1CN(CCC(=O)N2CCC3(CCN(C)CC3)C2)C[C@H](C)O1,2
CCCN1C(=O)CCc2cc(NC(=O)c3ccc(Cl)s3)ccc21,-90*
CCCC(=O)Nc1ccc2c(c1)C(=O)N(C)C[C@H](OC)[C@H](C)CN(C(=O)c1ccccn1)[C@@H](C)CO2,-13
Cc1ccnc(C(NC(=O)c2nnc3nc(C)cc(C)n23)C2CC2)c1 (stereo not drawn),11
C=CCOC[C@@H]1CNC(=O)[C@H]2CCN(CCOC)CC[C@@H]12,-29
CN1CC(=O)N=C1N,23
CCc1nc(C)sc1CN1CCCC1c1nc2ccc(F)cc2[nH]1 (stereo not drawn),-1
CCOc1ccc2nc(-c3nccn3CC3CCN(C(C)=O)CC3)ccc2c1,103
COc1ccccc1C1(O)CCCN(C(=O)C2(C)CCCO2)C1 (stereo not drawn),-5
CC(C)Cc1cc(C(=O)NCC2(O)CCNC2)on1 (stereo not drawn),7
Cc1ccccc1C(=O)N1CC(C(=O)NCc2cccs2)C2(CCOCC2)C1 (stereo not drawn),-4
CC(C)NC(=O)N1Cc2cc(C(=O)NC3Cc4ccccc4C3)nc(-c3cccc(-c4cccnc4)c3)c2[C@@H]1CCO,-55
CCOC(=O)N1CCN(Cc2ccc3c(c2)CN(C(=O)c2cc(-c4ccccc4)no2)CCO3)CC1,-4
Cc1ccc(-c2nc(Cn3nnc(C(=O)Nc4ccc(C)cc4C)c3C)c(C)o2)cc1,69
CCOC(=O)N1CCN(Cc2ccc3c(c2)CN(C(=O)c2sc(C)nc2C)CCO3)CC1,1
C/C=C/c1ccc2c(c1)O[C@H](CN(C)C(=O)Nc1ccc(OC)cc1)[C@@H](C)CN([C@@H](C)CO)S2(=O)=O,i
COc1ccccc1C(=O)N1CCC2(CC1)Nc1cc(C)ccc1-n1cccc12,35
CN(Cc1ccccn1)C(=O)c1nn(C)c2c1CN(Cc1ccco1)C2,0
C=CCOCc1ncn2c1CN(Cc1cnn(C)c1)CCC2,-33
O=C(Cc1nc2ccc(Cl)cc2[nH]1)NCCS(=O)(=O)N1CCCC1,15
Cc1ccc(-c2coc(-c3ccc(NC(=O)c4ccccc4C)cc3)n2)cc1,13
O=C(Nc1ccc2oc(-c3ccncc3)nc2c1)c1ccc(Br)o1,-21
CC(C)c1cc(C(=O)NCCN2N=C(c3ccccc3)CCC2=O)n(C)n1,-2
O=C(c1cccnc1-c1cccc(CN2CCOCC2)c1)N1CCCC1,10
CCC(C)NC(=O)Cn1c(=O)cc(-c2nc(C)no2)c2ccccc21 (stereo not drawn),42
O=C1CCC(=O)N[C@H](c2ccc3c(c2)OCO3)C/C=C\CCN1,-32
CCOC(=O)c1nc(Nc2ccccc2F)c2ccccc2n1,7
COC(=O)C[C@H]1C(C)(C)C(=O)[C@@H]2CC3=C4CC(=O)O[C@@H](c5ccoc5)[C@]4(C)CCC3[C@@]1(C)C2=O (stereo partly drawn),5
CN(C(=O)c1nc(-c2cn(C)cn2)n2ccccc12)c1ccccc1,4
C[C@H]1CN([C@@H](C)CO)C(=O)c2c(c3ccccc3n2C)-c2ccccc2CO[C@H]1CN(C)C(=O)Nc1ccc2c(c1)OCO2,-6
CC(C)C(OC(=O)CN1C(=O)COc2ccccc21)C(=O)NCc1ccco1 (stereo not drawn),14
COc1cc(C)c2c(c1C=O)Oc1c(c(C)c(O)c3c1C(O)OC3=O)OC2=O (stereo not drawn),9
O=C(O)CCCNC(=O)c1cccnc1,20
O=C(NCc1cccnc1)C1CC2CN(Cc3cccc(Cl)c3)CC1O2 (stereo not drawn),-56
CC(C)C(=O)N1CCN(c2ccc(NC(=O)c3cc4ccccc4o3)cc2)CC1,-69
Cc1cccc(N2C(=O)C3C(c4ccccc4)OC4(C(=O)c5ccccc5C4=O)C3C2=O)c1 (stereo not drawn),7
CC(C)N(CCC#N)C(=O)Nc1ccc2c(c1)CCO2,-32
Cc1ccc(-c2nc(Cn3ccn4nc(-c5ccc(Cl)cc5)cc4c3=O)c(C)o2)cc1,113
O=C(Nc1cccc(Cl)c1)N[C@H]1CC[C@@H](CCn2cc(Cc3ccccc3)nn2)O[C@@H]1CO,-41
CSc1cccc(NC(=O)N2CCCC2c2ccccn2)c1 (stereo not drawn),-9
COc1ccc2c(c1)NC1(CCN(S(=O)(=O)c3ccc(C)cc3C)CC1)c1cccn1-2,8
C[C@@H]1CN([C@@H](C)CO)S(=O)(=O)c2ccc(C#Cc3ccccc3F)cc2O[C@@H]1CN(C)C(=O)Cc1cccnc1,-8
CCN1C(=O)CCc2cc(C(=O)N3CCOCC3)ccc21,12
COc1ccc(CNc2nc(-c3nnc(-c4cccc(C)c4)o3)nc3ccccc23)cc1,109
Nc1ccc(Sc2nc3ccccc3s2)c(Cl)c1,-27
Cc1noc(C)c1CC(=O)N1CCCC2(C1)Nc1cccnc1NC2=NC1CCCC1 (stereo not drawn),31
N#Cc1sc(-c2ccc(F)cc2)cc1N,-45
COCc1nc(NCCc2nc3ccccc3[nH]2)c2cnn(C)c2n1,-14
Cc1ccc2nc(CN3CCCC4(CNC(=O)O4)C3)[nH]c2c1 (stereo not drawn),4
Cc1nn(Cc2nc(-c3ccc(NC(=O)c4cccs4)cc3)oc2C)c(C)c1C,-65

# In the list so far, these have a cyano group:
Compound,Tgondii IFNg
CC(C)N(CCC#N)C(=O)Nc1ccc2c(c1)CCO2,-32
N#Cc1sc(-c2ccc(F)cc2)cc1N,-45

# (listing goes on)
Compound,Tgondii IFNg
CCCc1oncc1C(=O)N1CCCC(N(C)CCN(C)C)C1 (stereo not drawn),-2
CCN1c2cc(F)ccc2C(=O)NC12CCN(C(=O)c1cccc(OC)c1)CC2,-4
Cc1ccccc1C(=O)NC(NCc1cccnc1)(C(F)(F)F)C(F)(F)F,42
CCC[C@@H]1C[C@@H](C(=O)N[C@@H]([C@H]2O[C@H](SC)[C@H](O)[C@@H](O)[C@@H]2O)[C@@H](C)O)N(C)C1,-20
Cc1oc(-c2ccccc2)nc1CN1C(=O)CSc2ccc(S(=O)(=O)N3CCOCC3)cc21,-44
COc1cc2c(cc1-c1c(-c3ccccc3)ncn1Cc1ccon1)CCC2,-16
CCCNC(=O)N1C[C@H](O)COC[C@H]2O[C@H](CC(=O)OC)CC[C@@H]21,28
O=C1N(Cc2ccccn2)C(=O)C2(CCN(Cc3ccc(F)cc3F)CC2)N1CCc1ccccc1,2
CS(=O)(=O)N1CCC2(CCOCC2COc2cnccn2)CC1 (stereo not drawn),-5
O=C(NCc1ccc(Cl)cc1)c1c(O)c2cccnc2n(-c2ccc(F)cc2)c1=O,-105*
Nc1ccc(S(=O)(=O)N2CCc3ccccc32)cc1,43
COCCOc1ccc(N)cc1C(F)(F)F,52
Cc1nc(C)c(CN2CCC(CNS(C)(=O)=O)C2)s1 (stereo not drawn),24
COc1ccc(S(=O)(=O)Nc2ccc3c(c2)C(=O)N([C@H](C)CO)C[C@H](C)[C@H](CN(C)C(=O)Nc2c(C)noc2C)OCCCC[C@H](C)O3)cc1,187
CNc1nc(N2CCC(O)(CO)CC2)nc2c1CCC2,6
CCCn1c(N2CCN(S(=O)(=O)Cc3ccccc3)CC2)nc2ccccc21,-62
CCCNC(=O)N1[C@H](CO)[C@@H](c2ccccc2-c2ccccc2F)[C@@H]1C#N,22
CCCCN(C)C(=O)c1ccc(-c2nc(CN3CCN(c4ccccc4)CC3)c(C)o2)cc1,-32
Cc1ccc(C(=O)N2CCC3(CC2)NC(=O)CC3c2cnn(C)c2)o1 (stereo not drawn),26
CO[C@H]1CN(C)C(=O)c2ccc(NS(=O)(=O)CC(F)(F)F)cc2OC[C@@H](C)N(Cc2nccs2)C[C@@H]1C,26
CCOc1ccccc1N(Cc1nc(-c2ccc(OC)cc2)oc1C)S(=O)(=O)c1ccccc1,-38
CNC(=O)c1cc2c(cn1)[nH]c1ccccc12,58
C[C@@H]1CN([C@@H](C)CO)C(=O)CCCn2nncc2CO[C@H]1CN(C)C(=O)CCC(F)(F)F,130
c1cnc2c(-c3cc(N4CCOCC4)ncn3)cccc2c1,13
C=CCOCc1cncc2c1CCN(C(=O)c1ccc[nH]1)C2,0
CCOc1ncccc1C(=O)N[C@H]1C[C@@H](C(=O)OC)N(C)C1,22
C[C@@H]1CN([C@H](C)CO)C(=O)c2cc(NC(=O)C3CC3)ccc2O[C@@H]1CN(C)S(=O)(=O)c1ccccc1,13
COc1ccc(-c2nc(Nc3ccc(C)cc3)c3ccccc3n2)cc1,-43
CCS(=O)(=O)N1CCC2(CC1)OC(=O)C(C)=C2C(=O)NCCCc1ccccc1,15
Cc1cc(C)cc(NC(=O)NCC2CCN(Cc3cnn(C)c3)C2)c1 (stereo not drawn),2
CCC(=O)c1c(OC)cc(OC)cc1C(=O)OC,108
Cc1ccn(C(=O)c2ccc(NC(=O)C3CCCCC3)cc2)n1,7
COCCN1CCCC(O)(CN2CCC(Oc3cccnc3)CC2)C1=O (stereo not drawn),0
C[C@@H]1CN([C@@H](C)CO)C(=O)CCCn2nncc2CO[C@@H]1CN(C)S(=O)(=O)c1ccccc1C#N,168
Cc1ccc(C)c(S(=O)(=O)N2CCC3(CC2)c2ncc(-c4cccc(F)c4)n2CCN3C)c1,-43
CCn1ncc(CN(C)Cc2cnc3c(-c4ccccc4)cnn3c2)c1C,2
COc1ccc(N2CC(NC(=O)c3ccc4nc(C(F)(F)F)[nH]c4c3)CC2=O)cc1 (stereo not drawn),5
COc1cccc(-c2cc(C(=O)N3CC[C@H](O)[C@@H](O)C3)[nH]n2)c1,1
S=C(NCc1ccc2c(c1)OCO2)N1CCN(c2ncnc3c2oc2ccccc23)CC1,-44
CS(=O)(=O)CS(=O)(=O)NCc1cccs1,42

# 4 records picked at random from the list so far:
Compound,Tgondii IFNg
CCn1ncc(CN(C)Cc2cnc3c(-c4ccccc4)cnn3c2)c1C,2
CS(=O)(=O)CS(=O)(=O)NCc1cccs1,42
Cc1ccc(C)c(S(=O)(=O)N2CCC3(CC2)c2ncc(-c4cccc(F)c4)n2CCN3C)c1,-43
COc1ccc(N2CC(NC(=O)c3ccc4nc(C(F)(F)F)[nH]c4c3)CC2=O)cc1 (stereo not drawn),5

# Additional compounds
Compound,Tgondii IFNg
CCCc1ccc(-c2nccn2CCc2nc(C)cc(=O)[nH]2)o1,1
CC(C)CCN1C2(CCN(Cc3ccncc3)C2)c2ccccc2S1(=O)=O (stereo not drawn),18
CN1CCN2CCN(C(=O)c3ccc4c(c3)N(C)C(=O)CO4)CC2C1=O (stereo not drawn),29
O=C1C(Cc2c[nH]c3ccccc23)N=C2c3ccccc3N=C(SCc3ccc(Cl)cc3)N12 (stereo not drawn),10
Cc1ncc(-c2ccc(C)c3ncccc23)[nH]1,-3
COc1ccc(-c2oc3cc(OC)c(OC)c(OC)c3c(=O)c2OC)cc1,-8
Cc1ccc(S(=O)(=O)Oc2cccc(-n3cnnn3)c2)cc1,29
CCOC(=O)c1cc(C#N)c(Sc2nnc(SC)s2)nc1C(F)(F)F,-32
Cc1ccc(-c2nc(CNc3ccnc(C)n3)[nH]c2-c2ccccn2)cc1,-12
O=C(NCCC1COc2ccccc2O1)c1ccc(-c2ccsc2)nc1 (stereo not drawn),-6
O=C(NCCNc1cccnc1)c1cc2ccccc2oc1=O,-2
CSc1ccc(C2c3[nH]c4ccccc4c3CCN2C(=O)c2ccc(N(C)C)cc2)cc1 (stereo not drawn),-53
COc1ccc(CN2C(=O)N(C)C3(CCN(Cc4nc(-c5ccccc5)cs4)CC3)C2=O)cc1,-25
CN1CC(c2ccccc2)C2(CCN(C(=O)c3cccn3C)CC2)C1=O (stereo not drawn),3
O=C(COC(=O)c1cccs1)c1ccc(Cl)cc1,9
CC(C)N1CC[C@]2(CCC[C@@H](CNC(=O)c3ccccc3)O2)C1,2

# Exported field by field: part of the list above
Compound: COCCOc1ccc(N)cc1C(F)(F)F
  Tgondii IFNg: 52

Compound: Cc1ccc(C(=O)N2CCC3(CC2)NC(=O)CC3c2cnn(C)c2)o1 (stereo not drawn)
  Tgondii IFNg: 26

# Next structures follow.
Compound,Tgondii IFNg
C[C@@H]1CN([C@H](C)CO)C(=O)CCCn2cc(nn2)CO[C@H]1CN(C)C(=O)Nc1cccc(C(F)(F)F)c1,31
Cc1ccc(C(=O)Oc2csc(=S)n2C(=O)c2ccc(C)cc2)cc1,13
CCC1CN(Cc2ccccc2SC)CCN1C(C)C (stereo not drawn),1
CCN1CCN(C)C2(CCN(Cc3nccs3)CC2)C1=O,95
CN(C)C(=O)c1cccc(-c2ccc3c(c2)[C@H]2[C@H](CCN2C(=O)Cc2ccccc2)[C@@H](CO)N3)c1,-34
CCS(=O)(=O)N1CCC2(CC1)CNCc1ccccc12,-42
COc1cc(C2N3CCCN2CC3)ccc1OCc1ccccc1 (stereo not drawn),162

# Source: PubChem BioAssay (Broad Institute)
